Screening data from PubChem.
CDC25B CDK2 inh: human CDC25B-CDK2/CyclinA binding inhibition; HTRF CDC25B-CDK2/CyclinA binding, anti-His/anti-Flag; stronger effect = higher value; z-score (no concentration beside the values); actives 0.72% (n = 94,000); AID 1259370;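 also: score is relative to mean and SD of negative controls; strong numbers were not always called active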
TAR Tat displ: HIV-1 TAR-Tat binding disruption; HIV-1 TAR RNA, Tat peptide displacement FRET; stronger effect = higher value; z-score (test concentration not listed); actives 0.6% (n = 100,000); AID 1259389;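 also: score is relative to mean and SD of negative controls; some compounds called inactive have numbers as strong as hits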
Numbers without * were called inactive; · = not tested or not shown.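 The calls were made as follows: active = z-score from 3 up in half or more of its runs; inactive = the rest.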

SMILES	CDC25B CDK2 inh	TAR Tat displ
COc1cccc2cc(S(=O)(=O)c3ccc(F)c(Cl)c3)c(=O)oc12	-1.2	·
COCCCNC(=O)c1cnc2sc(N3CCCC3)nn2c1=O	·	0.54
CCCS(=O)(=O)c1ncc(Cl)c(C(=O)Nc2nnc(CC)s2)n1	2	2.3
CC(Sc1nnc2ccc3ccccc3n12)C(=O)Nc1ccc(F)cc1 (stereo unspecified)	-1.3	1.8
Nc1nnc(SCC(=O)Nc2nnc(SCC(=O)Nc3ccc(Cl)c(Cl)c3)s2)s1	-1.6	·
O=C(Cn1c(=O)c2cccn2c2ccccc21)NCCC1=CCCCC1	·	3.4
CC1=C(c2cccc(Br)c2)S(=O)(=O)NC1=NCc1ccc2c(c1)OCO2	-1.4	-0.81
CC(=O)N1CCc2cc(S(=O)(=O)C(C)CC(=O)Nc3ccc(F)cc3F)ccc21 (stereo unspecified)	·	1.8
Cc1ccc(NC(=O)Cn2ncc3c(=O)oc4ccc(C)cc4c32)nc1	0.85	0.41
c1ccc2c(c1)c(NCC1CCCO1)nn1nnnc21 (stereo unspecified)	·	-0.54
CCC(C)NC(=O)C1CCN(C(=O)c2cc3ccsc3[nH]2)CC1 (stereo unspecified)	·	0.51
CC(C)OCCCN1C(=O)c2cc3sccc3n2CC1(C)C(=O)NC1CCCCC1C (stereo unspecified)	-2.4	1.5
CCOCCOC(=O)COc1ccc2c(=O)c(Oc3cccc(C)c3)coc2c1	-1.4	2.6
CCn1c(=O)c(N2CCC(C(=O)NC3CCCCC3)CC2)nc2cccnc21	-1.2	1.2
CCOC(=O)C1CCN(c2cc(C)nc3nc(-c4ccc(C(C)(C)C)cc4)nn23)CC1	1.6	0.28
Cc1cc(N2CCCC2)nc(N2CCN(C(=O)Nc3cccc(Cl)c3)CC2)n1	·	1.2
O=c1[nH]cnc2cc(N3CCOCC3)ncc12	-0.92	0.83
Cc1c(Cl)cccc1NC(=O)/C(C#N)=C/c1ccc(C(=O)O)cc1	-0.82	·
COc1ccc(NC2=NC(C(=O)Nc3ccc4c(c3)OCO4)CC(=O)N2)cc1 (stereo unspecified)	·	0.7
N/C(=N/S(=O)(=O)c1ccc(Cl)c(Cl)c1)c1ccc(Cl)cc1	0.82	·

Part of the list above, with values under each structure.
Below each SMILES: CDC25B CDK2 inh, TAR Tat displ
> COc1cccc2cc(S(=O)(=O)c3ccc(F)c(Cl)c3)c(=O)oc12
 : -1.2, ·
> COCCCNC(=O)c1cnc2sc(N3CCCC3)nn2c1=O
 : ·, 0.54
> CCCS(=O)(=O)c1ncc(Cl)c(C(=O)Nc2nnc(CC)s2)n1
 : 2, 2.3
> CC(Sc1nnc2ccc3ccccc3n12)C(=O)Nc1ccc(F)cc1 (stereo unspecified)
 : -1.3, 1.8
> Nc1nnc(SCC(=O)Nc2nnc(SCC(=O)Nc3ccc(Cl)c(Cl)c3)s2)s1
 : -1.6, ·
> O=C(Cn1c(=O)c2cccn2c2ccccc21)NCCC1=CCCCC1
 : ·, 3.4
> CC1=C(c2cccc(Br)c2)S(=O)(=O)NC1=NCc1ccc2c(c1)OCO2
 : -1.4, -0.81
> CC(=O)N1CCc2cc(S(=O)(=O)C(C)CC(=O)Nc3ccc(F)cc3F)ccc21 (stereo unspecified)
 : ·, 1.8
> Cc1ccc(NC(=O)Cn2ncc3c(=O)oc4ccc(C)cc4c32)nc1
 : 0.85, 0.41
> c1ccc2c(c1)c(NCC1CCCO1)nn1nnnc21 (stereo unspecified)
 : ·, -0.54
> CCC(C)NC(=O)C1CCN(C(=O)c2cc3ccsc3[nH]2)CC1 (stereo unspecified)
 : ·, 0.51
> CC(C)OCCCN1C(=O)c2cc3sccc3n2CC1(C)C(=O)NC1CCCCC1C (stereo unspecified)
 : -2.4, 1.5
> CCOCCOC(=O)COc1ccc2c(=O)c(Oc3cccc(C)c3)coc2c1
 : -1.4, 2.6
> CCn1c(=O)c(N2CCC(C(=O)NC3CCCCC3)CC2)nc2cccnc21
 : -1.2, 1.2
> CCOC(=O)C1CCN(c2cc(C)nc3nc(-c4ccc(C(C)(C)C)cc4)nn23)CC1
 : 1.6, 0.28
> Cc1cc(N2CCCC2)nc(N2CCN(C(=O)Nc3cccc(Cl)c3)CC2)n1
 : ·, 1.2
> O=c1[nH]cnc2cc(N3CCOCC3)ncc12
 : -0.92, 0.83
> Cc1c(Cl)cccc1NC(=O)/C(C#N)=C/c1ccc(C(=O)O)cc1
 : -0.82, ·

Further records:
SMILES	CDC25B CDK2 inh	TAR Tat displ
CC(=O)Nn1nc2cc3nnnc3cc2[nH]1	-2.1	·
Cc1cc(C(=O)O)c(C)n1Cc1cccs1	-0.56	·
CCOC(=O)c1c(C)oc2ncnc(N3CCC(C(N)=O)CC3)c12	·	-0.07
COC(=O)c1scc(C#N)c1N	-0.49	·
O=C1CC(c2cccc(Br)c2)c2cnn(-c3nc4ccccc4s3)c2N1 (stereo unspecified)	·	1.8
Cc1ccc(S(=O)(=O)N2CCc3ccc(N)cc32)cc1	·	1
COC(=O)C1=C(C(=O)OC)C(c2cc(Cl)ccc2O)c2sc(=O)[nH]c2S1 (stereo unspecified)	-11	·
Cc1ccc(C(=O)c2sc3nc(C)cc(-c4cccs4)c3c2N)cc1	1.3	-7
O=C(Cn1ncc2ccsc2c1=O)NCCCSC1CCCCC1	-1.2	0.47
FC(F)(F)c1cccc(-n2cc(-c3ccccc3)c3c(NCC4CCCO4)ncnc32)c1 (stereo unspecified)	0.27	·
Cn1nc(C(=O)N2CCOCC2)c2c1-c1ccsc1CC2	·	-0.54
Cc1ccc2oc3c(c(=O)c2c1)C(c1ccc(C(C)(C)C)cc1)N(CCCN(C)C)C3=O (stereo unspecified)	-1.6	1.7
CC1CN(C(=O)CCC(=O)NC2CCCC2)c2ccccc2S1 (stereo unspecified)	·	0.97
CCSc1ccccc1C(=O)Nc1sc2c(c1C(N)=O)CCC2	·	0.43
O=C(CC1(O)C(=O)N(Cc2ccccc2)c2ccccc21)c1ccc(Cl)cc1 (stereo unspecified)	-0.3	1.3
O=c1cc(CSc2nnc(-c3cccc(Cl)c3)o2)nc2sc3c(n12)CCCC3	-0.37	1.9
CC1CCCC(NC(=O)C2CCCN(C(=O)c3cc4sccc4n3C)C2)C1C (stereo unspecified)	-1.8	-0.83
COc1ccc(-c2cc3ncc(C(=O)c4cc(F)ccc4O)cn3n2)cc1	-1.8	0.39
O=c1[nH]cc(-n2c(=O)c3ccccc3c3ccccc3c2=O)c(=O)[nH]1	0.17	·
O=C1Nc2cc(C(=O)N3CC=C(c4ccccc4)CC3)ccc2Sc2ccccc21	-9.5	-1.4
Cc1ccc(S(=O)(=O)Nc2ccc(-c3nc(-c4ccc(C)c(C)c4)co3)cc2)cc1	·	-0.6
CC1CCN(C(=O)Cn2cc(SCC(=O)NC(C)(C)C)c3ccccc32)CC1	·	-1.1
Cn1c(=O)c2c(nc3n(-c4ccc5c(c4)OCO5)c(-c4ccccc4)cn23)n(C)c1=O	-1.5	1.1
CCOc1ccc(C2Sc3ccccc3NC3=C2C(=O)OC3)cc1 (stereo unspecified)	-0.66	0.4
COc1ccc(NS(=O)(=O)c2ccc(-c3n[nH]c(C)c3C)s2)cc1Cl	·	-0.33
O=C1c2cccnc2C(=O)N1Cc1ccc(S(=O)(=O)N2CCSc3ccccc32)cc1	·	1.5
NC(=O)C1=CCc2ccccc21	-1	·
COCCCNC(=O)Nc1nc2c(s1)CCCCC2	·	0.74
O=C(NC1CC1)c1cc(-c2cccnc2)n[nH]1	·	2.1
C=CCn1c(=O)c(C(=O)Nc2nccs2)c(O)c2ccccc21	·	1.6
O=C(CCSCc1cnn(-c2ccccc2)c1-n1cccc1)NCc1ccco1	-1.5	-2.6
Cc1ccc(-c2cc(=O)c3c(=O)n(-c4ccccc4)[nH]c3[nH]2)cc1	-1.5	1.1
CC(C)(C)c1ccc(Oc2cc3c(cc2[N+](=O)[O-])C(=O)NC3=O)cc1	-0.22	·
CC1=C(c2ccc(C)cc2)S(=O)(=O)N=C1Nc1cc(F)ccc1F	-4.4	-3.6
CSc1cccc(NS(=O)(=O)c2c(C)[nH]c(C)c2C(=O)N2CCCC2)c1	·	0.47
Cc1nc(C)c(C(=O)Nc2nnc(C3CC3)s2)s1	0.47	1.6
CC(=O)NC1=NN(C(C)=O)C(c2ccc(OC(=O)c3ccc(F)cc3)c(Br)c2)S1 (stereo unspecified)	-2	1.7
COCCN1C(=O)c2oc3ccccc3c(=O)c2C1c1ccc(C(=O)OC)cc1 (stereo unspecified)	0.82	0.74
Cc1ccc(N2CC(C)Cn3c2nc2c3c(=O)n(CC(=O)O)c(=O)n2C)cc1C (stereo unspecified)	-2	-0.33
COc1cccc(NC(=O)N2CCN(C(=O)C3CCCO3)CC2)c1 (stereo unspecified)	-1.3	·
CCOC(=O)c1ccc2nc(C(F)(F)F)nc(NCCCO)c2c1	2.1	-0.6
Cc1csc(NC(=O)CSc2nc(-c3cccs3)nc3c2c(=O)n(C)c(=O)n3C)n1	-1.8	·
Cc1ccc(OCC(O)CN2CCCC(C)C2)c(C)c1 (stereo unspecified)	-0.85	·
COC(=O)/C(=C\Nc1ccc(Sc2cc(Cl)ccc2Cl)nc1)NC(=O)c1ccccc1	-1.1	·
CN(C)c1ccc(CN(C(=O)c2nc(S(C)(=O)=O)ncc2Cl)C2CCS(=O)(=O)C2)cc1 (stereo unspecified)	-1.4	0.76
O=C(NCC(c1ccc2c(c1)OCO2)N1CCOCC1)C1CC1 (stereo unspecified)	·	1.7
COc1ccc(Cc2nnc(SC)[nH]c2=O)cc1	0.71	·
O=C(Nc1ccccc1Cl)N1CCCN(Cc2nc3cc(Cl)ccc3o2)CC1	·	1.3
CCCCc1ccc(Nc2ncnc3c2cnn3C)cc1	·	1.5
Oc1ccccc1C1=Nn2c(nnc2-c2ccccc2)SC1	-0.31	1.8
COc1cc(-c2ccccc2)nc2ccc(N)cc12	-1.7	3.5
Cc1cc(C)c(-c2c(N3CCCC(C)C3)c(=O)c2=O)cc1C (stereo unspecified)	·	0.57
CC1(C)CC(C)(C)c2ccccc2CN1	-0.89	·
CC1CCCN(S(=O)(=O)c2cc3c4c(c2)C(C)C(=O)N4CCC3)C1 (stereo unspecified)	·	2.3
CCc1nc2ccccc2nc1N1CCN(S(=O)(=O)c2ccccc2)CC1	0.6	·
CC(C)CN(Cc1nnc(-c2ccccc2)o1)CC(C)C	-1.4	0.1
Cc1ccc2c(c1)c1c(n2CC(O)Cn2nc(C)cc2C)CCCC1 (stereo unspecified)	-0.16	·
CCc1nnc(-c2cc(S(=O)(=O)N3CCc4ccccc4C3)c[nH]2)o1	·	0.46
CC(=O)N1CCc2cc(S(=O)(=O)C(C)CC(=O)Nc3ccc(F)cc3)ccc21 (stereo unspecified)	·	0.9
CC1CC(C)CN(C(=O)Cn2c(=O)oc3cc(S(=O)(=O)N4CCOCC4)ccc32)C1 (stereo unspecified)	-0.75	·
(continued)
SMILES	CDC25B CDK2 inh	TAR Tat displ
O=S1(=O)N=C(Nc2cccc(C(F)(F)F)c2)c2ccccc21	-1.5	·
O=C1CC(C(=O)Nc2ccc(Br)cc2)n2c(nc3ccccc32)N1 (stereo unspecified)	-1.4	-0.88
O=C(Cn1ncc2c1-c1ccccc1OC2)NC1CCCc2ccccc21 (stereo unspecified)	-0.59	1.5
CCOCCn1c(C2CC(=O)N(c3ccccc3)C2)nc2ccccc21 (stereo unspecified)	-1.9	0.7
O=S(=O)(c1ccc(-c2noc(COc3ccc(Cl)cc3)n2)cc1)N1CCCC1	·	0.99
COc1ccc(-c2nn(-c3ccccc3)cc2C2CC(c3ccco3)=NN2S(C)(=O)=O)cc1 (stereo unspecified)	-1.8	-4.1
Cc1cccc(CSCc2nc3ccccc3[nH]2)c1	-0.46	1.1
Cc1onc(-c2c(Cl)cccc2Cl)c1/C=C1/C(=O)Nc2ccccc21	-1.8	·
Cc1nn(S(=O)(=O)c2ccc(Cl)cc2)c(C)c1S(=O)(=O)N1CCCCC1	·	0.39
Cc1cc(NS(=O)(=O)c2ccc(NC(=S)NC(=O)/C=C/c3cccs3)cc2)no1	-1.5	·
C=CCn1c(Cc2c[nH]c3ccccc23)nnc1SCC(=O)Nc1ccc(Br)cc1	·	1.2
CCOc1ccccc1Nc1nc(-c2sc(N)nc2C)cs1	0.37	-0.02
Cc1cc(-c2ccccc2C(=O)Nc2ccccc2O)on1	-2.1	·
Cc1nn(CC(=O)NC2CCC(C)CC2)c(=O)c2cc3sccc3n12 (stereo unspecified)	-0.13	0.55
CC(=O)N1N=C(c2ccc(Br)cc2)OC1c1ccc([N+](=O)[O-])s1 (stereo unspecified)	0.25	-1.4
O=C(CSc1ccccc1)Nc1cc(F)c2nc(N3CCOCC3)ccc2c1	·	-0.05
COc1ccc(C2C(C(=O)OCC3CCCO3)=C(C)NC3=C2C(=O)CC(C)(C)C3)cc1 (stereo unspecified)	-4	0.05
O=C1NCCCCC1N1CCS(=O)(=O)CC1 (stereo unspecified)	-0.9	·
CN1C(C(=O)NC2CCCC2)=CC(c2ccco2)=NS1(=O)=O	-1.7	1.3
COc1cccc2c1OC(c1ccc(F)c(F)c1)N1N=C(c3cccnc3)CC21 (stereo unspecified)	-1.3	·
O=C(CCCn1ncn2c(cc3occc32)c1=O)NCc1ccccc1F	1.3	0.81
O=c1ccc(-c2ccccc2)no1	-1.1	·
Cc1ccnc(NC(=O)c2noc3c2CCCC3)c1	·	1.3
CCCCCOC(=O)CN1C(=O)C2C3c4ccccc4C(c4ccccc43)C2C1=O (stereo unspecified)	-0.66	1.1
COc1ccc(S(=O)(=O)c2cnc3cc(OC)c(OC)cc3c2N2CCC(C)CC2)cc1	4.7	1
COc1ccc(-c2noc(Nc3ccc4c(c3)OCCO4)n2)cc1	·	0.78
Cc1sc(-c2noc(C3CC3)n2)cc1S(=O)(=O)N1CCc2ccccc2C1	·	-0.7
COC(=O)C1SCCN1S(=O)(=O)c1ccc(Cl)cc1 (stereo unspecified)	-1.9	·
CCn1c(CN2CCOCC2)nc2ccccc21	-1.4	1.1
O=C(CN1C(=O)c2cccnc2Oc2ccccc21)NC1CCCCC1	·	0.75
Clc1ccc(-c2noc3ncnc(NCCCN4CCCCC4)c23)cc1	·	-0.21
COc1ccc(-c2[nH]nc3c2C(c2ccc(OC)cc2)C2=C(CC(C)(C)CC2=O)N3)cc1 (stereo unspecified)	·	0.64
